Anthrax LT inh – inhibitors of anthrax lethal toxin internalization | Potency, µM (series often up to 40 µM), for the others: at the top dose activity change, negative = inhibition, most hits filed as inhibitors | 70,000 tested, 0.67% active | Cells, anthrax lethal toxin internalization, FRET ratio (460/530) | AID 912; active = well fitted falling ratio curve with the 530 nm signal flat; inconclusive = other ratio curves, or a change in one channel alone; inactive = flat curves in the ratio and both channels; the % refers to the ratio; further: on the % scale 0 is the no-effect control and ±100 the full control effect; nearly all actives have a fitted effect of over 50% in size; tested in ME-180 cells; beta-lactamase reporter
SmPrx2 inh – Schistosoma mansoni Prx2 inhibition | 65,000 tested, 0.07% active | Potency, µM | AID 448 | S. mansoni Prx2 activity coupled to TGR/GSH (TGR is thioredoxin glutathione reductase), NADPH fluorescence loss, qHTS; some inactives read as strong as hits; active means full or partial inhibition curve with a strong effect at the top dose; inconclusive means weaker partial or single-point curve; inactive means no accepted curve; further: series up to 57 µM; many of its hits are not listed in these tables
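Coupled assay in which S. mansoni TGR passes NADPH reducing equivalents via glutathione to Prx2, which reduces H2O2. Compounds were preincubated 15 min at room temperature with 25 nM TGR/50 nM Prx2 mix. Kinetic NADPH fluorescence loss (ex 365/em 450 nm) was monitored.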
* hit, by the source's call; ? = inconclusive; . = no result given; [ ] = another dose, or the depositor's remark. Potency means the concentration at half of the fitted maximal effect. Some of the compounds tested. The share of hits here may be higher or lower than overall.

Values run as follows: Anthrax LT inh	SmPrx2 inh
1. CCc1nc(NCCc2ccccn2)c2nnn(Cc3ccccc3F)c2n1
    -6%	>57
2. COc1cccc(-c2nc(NCc3cnc(C)cn3)c3ccccc3n2)c1
    8%	>57
3. CC(C)(C)NC(=O)Nc1ccc2nccnc2c1
    27%	.
4. COc1ccccc1N1CCN(C(=O)c2cc3c(=O)n(C)c4ccccc4c3n2C)CC1
    4%	>57
5. CN(C)/C=N/c1ncnc2c1cnn2-c1ccc(C(F)(F)F)cn1
    8%	>57
6. Nc1nnc(SCCN2C(=O)c3ccccc3S2(=O)=O)s1
    ?	>57
7. COc1ccc(C2=NO[C@@H]3C(=O)N(c4ccc(C)cc4C)C(=O)[C@H]23)cc1OC
    ?	>57
8. O=C(O)CC(c1ccc(Cl)cc1)N1C(=O)CCC1=O (configuration not stated)
    0%	>57
9. Cc1nn2c(=O)cc(CSc3nc4ccccc4[nH]3)nc2s1
    8%	>57
10. COc1ccc(S(=O)(=O)N(Cc2cc3ccc(OC)cc3[nH]c2=O)CC2COCCO2)cc1 (configuration not stated)
    5%	.
11. CCOC(=O)c1ccc(NC(=O)C2CCCN(S(=O)(=O)c3cnc[nH]3)C2)cc1 (configuration not stated)
    -12%	>57
12. CCCOc1ccc(N2CC(C(=O)Nc3ccc4c(c3)OCO4)CC2=O)cc1 (configuration not stated)
    -3%	>57
13. Cc1nc(P(=O)(c2ccccc2)c2ccccc2)c(N2CCOCC2)o1
    -4%	>57
14. COc1ccc(-c2nc(CSCC(=O)NCc3ccco3)c(C)o2)cc1
    0%	>57
15. CN1C(=O)CC(N2CCN(C(=O)CN3CCCC3)CC2)C1=O (configuration not stated)
    6%	>57
16. O=C1CCCN1c1ccc(CNS(=O)(=O)c2ccc(F)cc2)cc1
    9%	>57
17. CCc1nnc(NC(=O)c2ccc(S(=O)(=O)N(CC(C)C)CC(C)C)cc2)o1
    21%	>57
18. COc1ccc(OC)c(S(=O)(=O)N2CCC(C(=O)NC(C)c3ccccc3)CC2)c1 (configuration not stated)
    -8%	>57
19. O=S(=O)(Nc1nc2ccccc2[nH]1)c1ccc(Cl)cc1
    -1%	>57
20. CCN(CC)c1ccc(NC(=O)c2cc3ccccc3o2)c(C)c1
    -13%	>57
21. N#CCBr
    -5%	.
22. COc1ccc(C2=NO[C@@H]3C(=O)N(c4ccc5c(c4)OCCO5)C(=O)[C@H]23)cc1OC
    0%	>57
23. O=C(COc1ncnc2ccccc12)NCCC1=CCCCC1
    0%	>57
24. Cc1nc2cc(NC(=O)N3c4ccccc4CC3C)ccc2o1 (configuration not stated)
    1%	>57
25. COc1cccc(NC(=O)COC(=O)c2cccnc2)c1
    -5%	>57
26. COc1ccc2nc3cc(Cl)ccc3c(Nc3ccc(O)c(CN4CCN(C)CC4)c3)c2c1
    ?	>57
27. CCOC(=O)CSc1nc2cc(OCC)ccc2cc1C#N
    -5%	>57
28. CC(C)N=C1SCC(C)(/C=N/O)S1 (configuration not stated)
    3%	>57
29. Cc1[nH]nc2c1C1(CCC(c3ccccc3)CC1)C(C#N)=C(N)O2 (configuration not stated)
    -4%	>57
30. O=C(O)c1ccc2c(c1)C(=O)N(Cc1ccccc1)C2=O
    -11%	>57
31. Cc1ccc(S(=O)(=O)c2n[nH]n3c2nc(=O)c2ccccc23)cc1
    12%	>57
32. C=CCNC(=O)c1ccccc1NC(=O)c1ccccc1
    ?	>57
33. O=C(CSc1nnc(-c2cccs2)o1)c1cccs1
    -5%	>57
34. COc1cc(OC)c(OC)cc1CNc1cc(C)ccc1OC
    -28%	.
35. CN(C)S(=O)(=O)NC(c1ccccc1)c1ccccc1
    -4%	>57
36. Cc1occc1C(=O)NC(C)C1CCCO1 (configuration not stated)
    7%	>57
37. Cc1cccc(N2CCN(C(=O)Cn3sc4nc(C)cc(C)c4c3=O)CC2C)c1 (configuration not stated)
    -19%	>57
38. O=C(CSc1ccc2nnc(-c3cccc(F)c3)n2n1)NCC1CCCO1 (configuration not stated)
    3%	>57
39. O=c1[nH]ccc2c(O)cccc12
    8%	>57
40. COc1cc2c(cc1OC)-c1cc(OCc3cccnc3)nc(=O)n1CC2
    3%	.

Along the list, as entered above.
Entries 4 to 15 in SmPrx2 inh: >57, >57, >57, >57, >57, >57, ., >57, >57, >57, >57, >57
Entries 4 to 15 in Anthrax LT inh: 4%, 8%, ?, ?, 0%, 8%, 5%, -12%, -3%, -4%, 0%, 6%

More compounds follow:
Values run as follows: Anthrax LT inh	SmPrx2 inh
41. COc1ccc(C(=O)N2CC(=O)N(CCc3ccccc3)C(=O)C2)cc1OC
    6%	>57
42. Cc1ccc(Cc2cncc(O)c2)cc1S(=O)(=O)O
    9%	>57
43. c1ccc(OP(Oc2ccccc2)Oc2ccccc2)cc1
    -3%	.
44. COC(=O)CSc1nnc(CNc2ccc(OC)cc2)n1C
    0%	>57
45. CCN(CC)S(=O)(=O)c1ccc(S(=O)(=O)Nc2ccc(C(=O)N3CCCC3)cc2)cc1
    -6%	>57
46. Cc1ccc(-n2nc(C(=O)N3CCN(C)CC3)c3c4ccccc4n(C)c3c2=O)cc1
    0%	>57
47. COc1ccc(OC)c(NC(=O)c2cc(-c3cc(Cl)ccc3O)n[nH]2)c1
    .	>57
48. CCCCC(=O)Nc1ccc(NC(=O)C(C)C)cn1
    4%	>57
49. COc1ccc(CC(=O)OCC(=O)Nc2ncc(Cl)cc2Cl)cc1
    -7%	>57
50. Cc1cc(C)cc(N2C(=O)N(c3ccccc3C)C3CS(=O)(=O)CC32)c1 (configuration not stated)
    5%	>57
51. O=C(O)CNC(=O)c1ccc([As](=O)(O)O)cc1
    -16%[8 µM]	>57
52. Cc1cc(O)c(C(C)C)cc1C1(c2cc(C(C)C)c(O)cc2C)OC(=O)c2ccccc21
    -15%[8 µM]	>57
53. CCc1c(O)nc(SCC(=O)NCc2ccco2)[nH]c1=O
    -2%	>57
54. O=C(O)Cn1c(CC(=O)N2CCCC2)nc2ccccc21
    -2%	>57
55. COc1ccc(CCNC(=O)C2CCCN(c3nn4c(=O)cc(C)nc4s3)C2)cc1OC (configuration not stated)
    -5%	>57
56. CCS(=O)(=O)NCC(c1cccnc1)N1CCN(c2ccccc2F)CC1 (configuration not stated)
    6%	>57
57. CCSc1nc(N2CCOCC2)c2c(c1C#N)CCCC2
    -16%	>57
58. O=C(NCCN1CCOCC1)c1cc(-c2ccccc2)on1
    5%	>57
59. Cc1cc(N2CCCCC2)nc(SCC(=O)c2ccccc2)n1
    -21%	>57
60. CCOC(=O)C1C(=O)CC(C)(O)C(C(=O)OCC)C1c1ccccc1OC (configuration not stated)
    8%	>57

Next section; the last three above are carried over.
Values run as follows: Anthrax LT inh	SmPrx2 inh
58. O=C(NCCN1CCOCC1)c1cc(-c2ccccc2)on1
    5%	>57
59. Cc1cc(N2CCCCC2)nc(SCC(=O)c2ccccc2)n1
    -21%	>57
60. CCOC(=O)C1C(=O)CC(C)(O)C(C(=O)OCC)C1c1ccccc1OC (configuration not stated)
    8%	>57
61. CNc1ncnc2ccc(-c3ccc4c(c3)OCO4)cc12
    5%	>57
62. O=C1C(=O)N(CCN2CCOCC2)C(c2ccccn2)/C1=C(/O)c1ccc(Cl)cc1 (configuration not stated)
    -5%	>57
63. Cc1nc2sccn2c1-c1csc(NCc2ccccc2)n1
    -12%	>57
64. O=C(O)CCCC(=O)Nc1cccc(-c2nc3ccccc3[nH]2)c1
    6%	>57
65. CC(C)(C)NC(=O)c1ccc(COCC(F)(F)F)o1
    -9%	>57
66. C=CC(=O)OCC
    5%	.
67. CC(C)CCC(C(=O)O)C(C)CC(=O)NC1CCCCC1 (configuration not stated)
    3%	>57
68. COC(=O)c1cnn(-c2ccc(C)c(C)c2)c1-n1cccc1
    .	>57
69. Cc1cc(C)n(CCn2nc(C)cc2C)n1
    .	>57
70. O=C(CN(Cc1ccco1)C(=O)Cn1nnc(-c2cccs2)n1)NCc1ccccc1
    8%	>57

Random excerpt: four entries already listed.
Values run as follows: Anthrax LT inh	SmPrx2 inh
59. Cc1cc(N2CCCCC2)nc(SCC(=O)c2ccccc2)n1
    -21%	>57
46. Cc1ccc(-n2nc(C(=O)N3CCN(C)CC3)c3c4ccccc4n(C)c3c2=O)cc1
    0%	>57
70. O=C(CN(Cc1ccco1)C(=O)Cn1nnc(-c2cccs2)n1)NCc1ccccc1
    8%	>57
45. CCN(CC)S(=O)(=O)c1ccc(S(=O)(=O)Nc2ccc(C(=O)N3CCCC3)cc2)cc1
    -6%	>57

(further entries)
Values run as follows: Anthrax LT inh	SmPrx2 inh
71. O=C(NC1CCCCCC1)C1c2ccccc2C(=O)N1Cc1ccco1 (configuration not stated)
    -13%	>57
72. Cc1ccc(C)n1-c1ncn[nH]1
    -1%	>57
73. Cc1csc2nc(CNS(=O)(=O)c3ccc4c(c3)CCCC4)cn12
    -8%	>57
74. NCCSCCc1ccccc1
    4%[8 µM]	>57
75. O=c1[nH]c(=O)n([C@@H]2C[C@H](O)[C@H](CO)O2)cc1I
    -6%[3.58 µM]	>57
76. O=C(CSc1nc2ccccc2o1)Nc1nc2c(s1)CCCC2
    -16%	>57
77. CCCc1nc2sc3c(SCC(=O)NCc4ccco4)ncnc3c2c2c1CCC2
    ?	>57
78. CC(=O)Nc1nc(N2C(=O)c3ccccc3C2=O)n(-c2ccccc2)n1
    11%	>57
79. CCCCn1nnc(NC(=O)Cc2ccc(Cl)cc2)n1
    7%	>57
80. COc1ccc2cc(CN(C(=O)Nc3ccccc3OC)C3CCCC3)c(=O)[nH]c2c1
    -15%	>57
81. Cn1c(CCNC(=O)c2ccccc2F)nnc1SCc1nc2ccccc2c(=O)[nH]1
    -6%	>57
82. CCN(CC)S(=O)(=O)c1ccc(C(=O)Nc2ccc3c(c2)OCCO3)cc1
    -7%	>57
83. CCCCOc1ccc(S(N)(=O)=O)cc1
    -2%	>57
84. CC(O)COc1ccc(/C(=N/O)c2ccccc2)cc1 (configuration not stated)
    2%	>57
85. COc1ccc(C(=O)COC(=O)CCn2nnc(-c3cccc(O)c3OC)n2)cc1
    -17%	>57
86. COc1ccc(C(=O)N2CCC[C@@]3(CCN(c4ncccn4)C3)C2)cc1
    -2%	>57
87. CC1(C)Cc2c(C#N)c(SCC(=O)c3ccccc3)nc(N3CCOCC3)c2CO1
    13%	.
88. CSC1=NCCN1C(=O)Cc1ccc(Cl)cc1
    5%	>57
89. O=C(Nc1ccccc1F)c1ccncc1
    -21%	>57
90. C=CCn1c(SCC(=O)c2cc(C)n(C(C)COC)c2C)nc2sc(C)c(C)c2c1=O (configuration not stated)
    -13%	>57
91. CCOC(=O)c1cnc2c(C(F)(F)F)cccc2c1N1CCOCC1
    -9%	>57
92. Cc1ccc(C(=O)Nc2nnn(C)n2)cc1
    2%	>57
93. CC1(C)CCC[C@@]2(C)[C@@H]1CC[C@]1(C)OC(=O)C[C@@H]21
    ?	>57
94. CN1CCN(CC(=O)Nc2c(C(=O)C3CC3)oc3ccccc23)CC1
    -11%	>57
95. COC(=O)c1ccc(CSc2nc3scc(-c4cccs4)c3c(=O)[nH]2)o1
    -2%	>57
96. Cc1nc(SCc2c(F)cccc2Cl)c2c(=O)n(C)c(=O)n(C)c2n1
    -22%	>57
97. O=C1C2CCCN2C(c2ccccc2F)N1c1ccc(Cl)cc1 (configuration not stated)
    6%	>57
98. Cc1noc(C)c1C(=O)Nc1cccnc1
    -20%	>57
99. COc1ccc(S(=O)(=O)N2CCCC(C(=O)O)C2)cc1 (configuration not stated)
    -1%	.
100. COc1ccc(CN2C(=O)C3C4C=CC(C4)C3C2=O)cc1 (configuration not stated)
    3%	>57
101. Nc1ccc(C(=O)O)cc1
    -11%	.
102. O=C(c1ccc(F)cc1)c1ccc(N2CCCC2)cc1
    ?	.
103. COc1ccccc1N1CCN(S(=O)(=O)c2cccc3nsnc23)CC1
    -14%	>57

Quoted from above: entries 96–99
Values run as follows: Anthrax LT inh	SmPrx2 inh
96. Cc1nc(SCc2c(F)cccc2Cl)c2c(=O)n(C)c(=O)n(C)c2n1
    -22%	>57
97. O=C1C2CCCN2C(c2ccccc2F)N1c1ccc(Cl)cc1 (configuration not stated)
    6%	>57
98. Cc1noc(C)c1C(=O)Nc1cccnc1
    -20%	>57
99. COc1ccc(S(=O)(=O)N2CCCC(C(=O)O)C2)cc1 (configuration not stated)
    -1%	.

Source: PubChem BioAssay
